Assay outcomes from PubChem.
D2 ag: agonists of human D2 dopamine receptor (beta-arrestin); P14416; DiscoveRx PathHunter D2 beta-arrestin, luminescence, 90 min; 100% = 57 uM dopamine signal; activation, % (no concentration beside the values); 360,000 compounds, 0.084% hits; in the data active = activation above about 40%; inconclusive = about 15% to 40%; inactive = below about 15%; further: compound concentration not given in the record; the text of the record calls up to 30% inactive
Target sequence (P14416 whole entry, looked up): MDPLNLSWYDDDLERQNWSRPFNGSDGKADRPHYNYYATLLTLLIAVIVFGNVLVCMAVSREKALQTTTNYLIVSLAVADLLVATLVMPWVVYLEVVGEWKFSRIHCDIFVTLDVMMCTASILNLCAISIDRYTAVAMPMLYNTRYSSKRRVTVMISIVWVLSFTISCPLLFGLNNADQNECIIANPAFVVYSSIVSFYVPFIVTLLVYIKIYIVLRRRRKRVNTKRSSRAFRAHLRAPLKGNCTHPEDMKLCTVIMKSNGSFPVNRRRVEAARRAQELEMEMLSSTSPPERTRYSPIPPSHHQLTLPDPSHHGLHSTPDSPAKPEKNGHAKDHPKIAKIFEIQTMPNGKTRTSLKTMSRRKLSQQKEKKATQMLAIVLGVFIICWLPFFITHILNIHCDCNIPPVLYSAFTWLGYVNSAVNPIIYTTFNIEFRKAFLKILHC
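DiscoveRx PathHunter D2 beta-arrestin cells (2,100/well) attached overnight, then compound-stimulated 90 min at 37 C in HBSS/10 mM HEPES/0.1% Tween-20 buffer; beta-galactosidase complementation read by luminescence after 1 h at ambient temperature. Dopamine 57 uM final (EC100) as control.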
CtBP-E1A inh: inhibitors of CtBP/E1A interaction; AID 651724; 340,000 compounds, 0.49% hits; activity change, % (concentration not given with the values); AlphaScreen GST-E1A/His-CtBP binding, 1536-well; hits give low values; control for the full effect not named in the record; in the data active means activity change below about -65%; inconclusive means about -30% to -65%; inactive means above about -30%; further: on the % scale 0 is the no-effect control and ±100 the full control effect
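Homogeneous bead-based format: GST-tagged E1A captured on glutathione donor beads, His-tagged CtBP on nickel acceptor beads; compounds precede bead addition by 2 h at 37 °C.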
Six1-Eya2 inh: blocks human Six1 binding to Eya2; AID 651725; activity change, % (no concentration beside the values); AlphaScreen GST-Six1/His-Eya2 binding, biochemical; hits give low values; control for the full effect not named in the record; 360,000 compounds, 0.56% hits; Q15475+O00167; in the data active = activity change below about -65%; inconclusive = about -30% to -65%; inactive = above about -30%; further: on the % scale 0 is the no-effect control and ±100 the full control effect
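AlphaScreen with GST-Six1 and His-Eya2 (5X mix: 250 nM and 500 nM), glutathione donor and nickel acceptor beads; buffer 50 mM Tris pH 8.0, 300 mM NaCl, 1 mM TCEP; 1 h at 37 C in the dark.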
D2 potentiator: positive allosteric modulators of human D2 dopamine receptor | 360,000 compounds, 0.23% hits | potentiation, % (concentration not given with the values) | DiscoveRx D2 beta-arrestin cells, luminescence, 90 min; 100% = 57 uM dopamine signal | P14416; active = potentiation of 50% or more; inconclusive = 30% to 50%; inactive = 30% or less;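 further: tested on top of an EC20 dose of dopamine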
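PathHunter beta-arrestin assay in DiscoveRx D2 cells. Compounds were added with an EC20 of dopamine (50 nM final) for 90 min at 37 deg C. Luminescence was read 1 h after detection reagent, with 57 uM dopamine as the EC100 control.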
PINK1 expr mod: modulators of PINK1 expression; PINK1 immunofluorescence, high-content cytometry, 24 h; Potency, µM (highest dose often 76.6 µM), without a hit: at the highest dose activation (PINK1 increase), actives largely listed as activators; 410,000 compounds, 0.2% hits; active = well fitted activation curve with a large enough effect; inconclusive = small, poorly fitted or top-dose-only effect; inactive = flat fitted curve, though single readings scatter; cell line not stated here;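 further: potency means the concentration at half of the fitted maximal effect; % of control where 0% means no effect; nearly all actives have a fitted effect of over 65% in size; a mitochondrial uncoupler was the plate control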
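Decision-based qHTS: stable cells, 24 h exposure to five compound concentrations, CCCP as control. Fixed cells stained for PINK1 plus nuclear, mitochondrial and cell markers, cytometer read.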
TRPML1 agonist: agonists of human TRPML1 channel; Q9GZU1; TRPML1-expressing cells, Ca2+ dye fluorescence, FDSS; host cell line not named in the record; reference of the full effect not given here; activation, % (concentration not given with the values); 410,000 compounds, 0.12% hits; AID 624414; in the data active = activation above about 50%; inconclusive = about 30% to 50%; inactive = below about 30%; further: 0% is about no effect; the text of the record puts the active cut at 80%
Target sequence (Q9GZU1 whole entry, looked up): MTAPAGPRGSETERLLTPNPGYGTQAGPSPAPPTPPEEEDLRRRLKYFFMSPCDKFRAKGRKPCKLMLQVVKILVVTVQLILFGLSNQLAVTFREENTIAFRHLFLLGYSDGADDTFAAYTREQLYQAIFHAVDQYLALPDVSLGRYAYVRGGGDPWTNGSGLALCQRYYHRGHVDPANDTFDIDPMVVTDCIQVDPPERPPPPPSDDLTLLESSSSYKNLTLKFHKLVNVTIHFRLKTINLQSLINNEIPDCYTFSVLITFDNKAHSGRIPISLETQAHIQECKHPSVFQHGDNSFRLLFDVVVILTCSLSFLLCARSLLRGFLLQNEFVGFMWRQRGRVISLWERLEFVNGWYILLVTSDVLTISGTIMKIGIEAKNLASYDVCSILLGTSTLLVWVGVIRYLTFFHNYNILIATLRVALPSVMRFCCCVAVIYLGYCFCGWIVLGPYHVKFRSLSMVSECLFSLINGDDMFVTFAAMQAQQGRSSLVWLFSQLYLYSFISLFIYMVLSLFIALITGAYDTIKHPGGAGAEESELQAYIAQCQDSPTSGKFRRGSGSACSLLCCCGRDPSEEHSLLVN
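Tet-induced TRPML1-DL cells, 1,500 per well, cultured overnight, were loaded with a no-wash Ca2+ dye for 45–90 min. Calcium fluorescence was recorded on the FDSS for 110 s after compound addition, before the EC80 agonist (4 uM 54-4) was added.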
An asterisk follows results filed as active; u = inconclusive; x = not tested or not shown; & = joins results of further samples; [ ] = remark or other dose.

SMILES | D2 ag | CtBP-E1A inh | Six1-Eya2 inh | D2 potentiator | PINK1 expr mod | TRPML1 agonist
COC(=O)c1ccc(C)c(NC(=O)CSc2nc3[nH]c(=O)cc(O)c3s2)c1 | -0.7 | x | 0 | 7 | 0.6% | -0.3
CC(C)(C)NC(=O)C(c1ccncc1)N(C(=O)CNC(=O)c1ccco1)c1ccc(F)cc1 (stereo not given) | -0.7 | -4 | -7 | -8 | 1.5% | -0.3
CC(=O)c1ccc(NC(=O)CN2CCCCCC2)cc1 | -0.3 | 0 | 2 | -7 | 0.1% | 0.5
CCOc1ccc(N2C(=O)CC(NCCc3ccncc3)C2=O)cc1 (stereo not given) | -2.2 | 2 | -2 | 7 | -7.2%[38.3 µM] | 0.1
CC(=O)Nc1ccc(NC(=O)c2cc(-c3ccc(C)cc3O)n[nH]2)cc1 | 3.8 | 2 | -10 | -3 | -1.4% | 0.9
Cc1ccc(NC2CCCN(C(=O)c3cccc4nccnc34)C2)cc1C (stereo not given) | 4.6 | 2 | 0 | 1 | 2.4% | -0.1
COc1ccccc1CNC(=O)CCC1N=C2c3ccccc3N=C(SCC(=O)NCC3CCCO3)N2C1=O (stereo not given) | -2.4 | -6 | 2 | -12 | 1.1% | -0.6
Cc1ccccc1OCCC(=O)NNC(=O)COc1cccc(F)c1 | -0.3 | 7 | 4 | -13 | -0.6% | 0.1
CC(=O)NC1CCN(C(=O)N2CCCC2)CC1 | -2.2 | 5 | 5 | 19 | -0.4% | -0.7
Cc1onc(-c2ccccc2)c1C(=O)Nc1ccc(S(=O)(=O)N2CCOCC2)cc1 | -2.8 | -14 | -9 | -3 | -0.3% | 0.7
CC(NS(=O)(=O)c1ccccc1)C(=O)Nc1nccs1 (stereo not given) | -6.3 | 0 | 1 | 7 | -1.5% | 0.1
CCOC(=O)C1CCN(CCC(=O)Nc2ccc(Br)c(C)c2)CC1 | 6.9 | 1 | 4 | -11 | 0.5%&-0.7% | -0.4&1.2
Cc1cc(=O)n2nc(N3CCCC(C(=O)NCc4cccc(Cl)c4)C3)sc2n1 (stereo not given) | -4.3 | -8 | -4 | -7 | -0.8% | 0.8
CCOc1cc(/C=C2\N=C(SCC)SC2=O)cc([N+](=O)[O-])c1OC(C)=O | -6.1 | -10 | -2 | -6 | -0.6% | -1.2
O=C(O)C1CCCCC1C(=O)Nc1ccccc1Nc1ccccc1 (stereo not given) | -2.3 | 2 | 3 | 9 | -0.1% | 1.0
COc1cccc(C(=O)N2CCN(Cc3ccc4c(c3)OCO4)CC2)c1OC | -5.9 | -1 | -2 | -24 | -1.4% | 0.7
CN(CC(=O)N1CCCC1)S(=O)(=O)c1cc(Cl)ccc1Cl | -2.0 | 6 | 1 | -2 | 8.4%[38.3 µM] | -0.1
CC(=O)Nc1ccc(S(=O)(=O)NNC(=O)CCC(=O)Nc2cc(C)ccc2C)cc1 | 1.2 | 9 | 4 | 13 | -1.5% | 0.0
N#Cc1ccc(C(=O)NC2CCCCCCC2)cc1 | 0.3 | 4 | 0 | -10 | 0.4% | 0.2
O=C(Nc1ccc(Br)cn1)c1coc(=O)c(Br)c1 | -2.4 | 1 | -16 | -8 | 0.6% | 0.6
CCOC(=O)C1CCN(C(=O)/C(C)=C\c2ccccc2)CC1 | -5.5 | x | 15 | -7 | 0.3% | 0.7
CCOC(=O)c1ccccc1N=Cc1c(O)c2ccccc2oc1=O | -2.8 | x | -2 | 4 | 0.8% | x
COc1cc2cc(C(=O)Nc3ccccc3)c(N)nc2cc1OC | 0.5 | u | u | 10 | -1.4% | -0.6
N#Cc1cnn(Cc2ccccc2)c1N | 3.3 | 3 | 5 | -6 | 0.4% | 1.1
CC(C)(C)OC(=O)NCCCC[C@@H](C(=O)N1CCN(C(=O)OC(C)(C)C)CC1)n1cc(CCC(=O)O)nn1 | -1.8 | 3 | 2 | 1 | -0.4% | -0.8
O=[N+]([O-])c1ccc(C(O)C[n+]2ccccc2)cc1 (stereo not given) | -5.1 | -11 | 1 | -3 | 0.6% | 0.7
COc1ccc(NC(=O)c2cc3c(=O)n(C)c4ccccc4c3n2C)cc1OC | 7.3 | -23 | -21 | 14 | 3.5% | -0.5
Cc1ccccc1N(C(=O)c1snc(C(N)=O)c1N)C(C(=O)NCC1CCCO1)c1ccc(F)cc1 (stereo not given) | -3.9 | -1 | -4 | -5 | 0.3% | -1.8
COc1ccc(CCN(C)C(=O)C2CCCN(Cc3ccc(OC)c(OC)c3)C2)cc1OC (stereo not given) | -0.6 | 4 | 5 | -7 | 1.2% | 0.9
Cc1ccccc1NC(=O)c1ccc(C)c(S(=O)(=O)Nc2ccccn2)c1 | 0.5 | -1 | 4 | -14 | -3.9%[38.3 µM] | -0.1
CCOC(=O)C1=NN(c2ccccc2C)C2=NC(C)=C(C(=O)OC)C(c3cccs3)N12 (stereo not given) | -0.9 | 4 | -1 | -7 | 2.6%[38.3 µM] | -0.2
COc1ccc(S(=O)(=O)N2CCC(C(=O)N[C@H](C(=O)NCc3ccco3)C(C)C)CC2)cc1 | -1.5 | -1 | 7 | -9 | -0.8% | -0.7
c1ccc2c(c1)Oc1cccc3cccc-2c13 | -4.0 | 117 | 138 | -6 | 12% | 5.2
CN1CCC(CNC(=O)Nc2csc3ccccc23)CC1 | -2.9 | 4 | 7 | -5 | 2.5% | 0.2
CC(C)(C)c1ccc(C(=O)NNc2cc(N3CCOCC3)nc(N3CCOCC3)n2)cc1 | 0.4 | -3 | -1 | -5 | 4.9% | -0.6
O=C(Oc1nsnc1N1CCOCC1)N1CCCCC1 | 0.6 | 24 | 2 | -11 | 7.2%[38.3 µM] | 3.4
COc1cc(CNn2c(C)n[nH]c2=S)cc(Cl)c1OCc1ccccc1 | -8.8 | 8 | -9 | -11 | x | 3.1
O=C(NCCS(=O)(=O)N1CCN(c2ccccc2)CC1)C12CC3CC(CC(C3)C1)C2 | -0.1 | -8 | -15 | -14 | 0.7% | -0.8
COc1ccc(C(=O)NC2CCN(Cc3ccccc3)C2)cc1S(=O)(=O)N1CCOCC1 (stereo not given) | 1.8 | -22 | -16 | -5 | 1.1% | 0.2
CC(=O)c1cc(C(=O)Nc2ccccc2C(=O)O)oc1C | 0.8 | -12 | -6 | -17 | -1.2% | -0.3
CCCOP(=O)(c1ccc(N(C)C)cc1)C(O)c1ccccc1OC (stereo not given) | -2.3 | -1 | 0 | -7 | 1.7%[38.3 µM] | -0.4
O=c1c(Cl)c(Cl)cnn1Cc1ccccc1Cl | -2.9 | 5 | -5 | -9 | -0.5% | -0.5
O=C(CC1Oc2ccccc2NC1=O)NCc1ccccc1 (stereo not given) | -1.4 | -2 | 11 | -1 | 0.0% | -0.2
O=C(Nc1ccc(Nc2ccccc2)cc1)c1ccc(F)cc1 | 5.6 | x | -10 | -27 | 1.9% | -0.3
N#Cc1c2n(c(=S)n(-c3ccc(F)cc3)c1=O)CCCCC2 | 3.8 | -12 | -5 | 0 | 3.4% | -0.3
COc1ccccc1NC(=O)Nc1ccc(C(=O)N2CCCCC2)cc1 | -4.8 | x | 7 | -19 | 6.3% | -0.9
COCC(O)CSc1nc(C)[nH]c1[N+](=O)[O-] (stereo not given) | -0.8 | 11 | -1 | -13 | 0.8%[38.3 µM] | 0.0
COc1ccc(C(=O)N/N=C(\C)CC(=O)Nc2cccc(C(F)(F)F)c2)cc1 | -3.3 | 0 | -2 | -12 | 3.7% | 0.5
O=C(NC(=S)Nc1cccc(-c2ccc(CO)o2)c1)c1cccs1 | -6.6 | -7 | -7 | -12 | -1.0% | 0.4
O=C(NN=C1CCCC1)C1COc2ccccc2O1 (stereo not given) | 1.3 | 0 | 3 | -4 | 0.7% | -0.4
O=C1CN(C(=O)COC(=O)[C@@H]2CCCN2S(=O)(=O)c2ccc(Cl)cc2)c2ccccc2N1 | -0.2 | -9 | -15 | -12 | -0.7% | 0.6
COCCC(=O)N1CCC(Oc2ccc(C(=O)N3CCC(N(C)C)C3)cc2)CC1 (stereo not given) | 1.5 | 7 | 3 | -2 | -1.9% | -0.3
CCOC(=O)C1CCN(C(=O)C(C)Oc2ccc(C(=O)c3ccccc3)cc2)CC1 (stereo not given) | -2.0 | 4 | 2 | 0 | 10% | 0.1
COc1cc(C(=O)OCC(=O)N2CCN(S(=O)(=O)c3ccc(C)cc3C)CC2)c([N+](=O)[O-])cc1OC | -3.1 | -23 | -7 | 5 | -0.8% | 0.7
CC(C)CC(=O)N1CCN(CC2CC=CCC2)CC1 (stereo not given) | 5.0 | 5 | 15 | -20 | 0.2% | -0.1
COC(=O)c1ccccc1NC(=O)CN(C)S(=O)(=O)c1ccc(OC)c(C)c1 | 0.7 | 5 | -2 | 8 | -3.4%[38.3 µM] | 2.3
CC1(C)CCC(=O)N2CC[C@H]3C[C@H](OC(=O)Nc4ccccc4)C[C@@H]1[C@H]32 | 0.7 | 5 | 6 | -2 | 0.4% | -0.8&0.4
C=CCNC(=O)c1cc(-c2ccccc2O)on1 | -2.5 | 0 | -2 | -8 | 0.1% | 1.1
CCCNC(=O)OCC12CC3CC(CC(C3)C1)C2 | -3.7 | -10 | 4 | -23 | 1.9% | 5.2
O=Cc1cc2ccccc2nc1SCc1ccc(Cl)cc1 | 1.2 | 6 | 11 | 8 | u | 1.0

Reprinted from the part before: two compounds, then new ones.
SMILES | D2 ag | CtBP-E1A inh | Six1-Eya2 inh | D2 potentiator | PINK1 expr mod | TRPML1 agonist
CCCNC(=O)OCC12CC3CC(CC(C3)C1)C2 | -3.7 | -10 | 4 | -23 | 1.9% | 5.2
O=Cc1cc2ccccc2nc1SCc1ccc(Cl)cc1 | 1.2 | 6 | 11 | 8 | u | 1.0
COc1ccc(N2CCN(C(=O)COC(=O)/C=C/c3ccc(C(F)(F)F)cc3)CC2)cc1 | -1.2 | -14 | -5 | -11 | 4.2% | 0.1
COc1ccc(S(=O)(=O)N2CCC(C(=O)NCc3ccncc3)CC2)cc1C | 0.2 | -1 | 3 | -2 | 4.4% | -0.4
CCc1ccc(C(=O)NNC(=O)C2CSC3(C)CCC(=O)N23)cc1 (stereo not given) | -3.7 | 0 | -5 | 6 | 1.6% | -0.6
CCOCC(=O)Nc1cc(C)on1 | 3.2 | -13 | 15 | -8 | 0.1% | 1.6
O=C(Nc1nc(=O)n(C(=O)C2CC2)s1)c1ccccc1 | -6.9 | 6 | 0 | -18 | -0.5% | -1.0

5 compounds already listed, arranged by SMILES length, high to low:
SMILES | D2 ag | CtBP-E1A inh | Six1-Eya2 inh | D2 potentiator | PINK1 expr mod | TRPML1 agonist
COc1ccc(N2CCN(C(=O)COC(=O)/C=C/c3ccc(C(F)(F)F)cc3)CC2)cc1 | -1.2 | -14 | -5 | -11 | 4.2% | 0.1
COc1ccc(S(=O)(=O)N2CCC(C(=O)NCc3ccncc3)CC2)cc1C | 0.2 | -1 | 3 | -2 | 4.4% | -0.4
CCc1ccc(C(=O)NNC(=O)C2CSC3(C)CCC(=O)N23)cc1 (stereo not given) | -3.7 | 0 | -5 | 6 | 1.6% | -0.6
CCCNC(=O)OCC12CC3CC(CC(C3)C1)C2 | -3.7 | -10 | 4 | -23 | 1.9% | 5.2
CCOCC(=O)Nc1cc(C)on1 | 3.2 | -13 | 15 | -8 | 0.1% | 1.6
